gsp antagonist: gsp mutant antagonism; AID 624288; 340,000 compounds, 0.4% hits; Potency, µM (highest dose often 76.9 µM), inactives show at the top dose activity change, negative = inhibition, most hits filed as inhibitors; gsp-mutant cells, cAMP HTRF, 30 min; control for the full effect not named in the record; active = falling curve of any shape with a large fitted effect; inconclusive = falling curve, mostly with a smaller effect; inactive = flat or rising curve; cell line not stated here;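 note: intracellular cAMP measured with PDE inhibitor Ro 20-1724 present during compound exposure; potency is the fitted concentration of half-maximal effect; % is set by controls: 0 for no effect and ±100 for the full control effect; nearly all actives have a fitted effect of over 65% in size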
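Cells, 2000/well, grown 16–24 h in DMEM 10% FBS with 0.5 mg/ml G418, then compounds plus […] (300 uM addition stock), 30 min at 37C. cAMP read by HTRF (cAMP-d2 and anti-cAMP antibody-K in lysis buffer) after 30 min RT.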
TRPML1 inh: blocks the human TRPML1 channel | TRPML1-inducible cells, Ca2+ dye fluorescence, FDSS; hits give low values; inhibition of EC80 agonist-evoked calcium signal | activity change, negative = inhibition, % (no concentration beside the values) | 390,000 compounds, 0.02% hits | AID 624415; in the data active means activity change below about -50%; inconclusive means about -30% to -50%; inactive means above about -30%;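 note: stimulus is agonist 54-4 at its EC80 concentration; % is set by controls: 0 for no effect and ±100 for the full control effect; compound concentration not given in the record; the text of the record puts the active cut at -80%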
Target sequence (Q9GZU1 whole entry, looked up): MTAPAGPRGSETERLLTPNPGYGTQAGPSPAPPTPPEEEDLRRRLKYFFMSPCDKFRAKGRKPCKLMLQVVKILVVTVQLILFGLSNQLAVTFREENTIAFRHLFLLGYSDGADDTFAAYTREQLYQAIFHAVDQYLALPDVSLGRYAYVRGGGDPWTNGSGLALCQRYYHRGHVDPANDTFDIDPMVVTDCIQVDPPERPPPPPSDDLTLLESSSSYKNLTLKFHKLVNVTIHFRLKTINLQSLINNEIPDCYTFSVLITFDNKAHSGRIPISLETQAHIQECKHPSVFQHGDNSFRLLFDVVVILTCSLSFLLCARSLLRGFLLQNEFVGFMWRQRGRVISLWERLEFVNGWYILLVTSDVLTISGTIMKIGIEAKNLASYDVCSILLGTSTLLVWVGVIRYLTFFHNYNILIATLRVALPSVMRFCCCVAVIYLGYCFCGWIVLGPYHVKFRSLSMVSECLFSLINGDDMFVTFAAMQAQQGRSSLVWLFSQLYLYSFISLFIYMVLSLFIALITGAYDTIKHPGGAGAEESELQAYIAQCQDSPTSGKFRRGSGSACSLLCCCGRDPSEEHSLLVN
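TRPML1-DL cells, Tet-induced overnight (~16 h, 37 °C) at 1,500 cells/well, were loaded with Ca8 no-wash dye plus quencher for 45-90 min at room temperature. Compounds were pinned during FDSS kinetic reading; agonist 54-4 at EC80 (4 uM final) then added.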
Menin-MLL FL inh: displaces fluorescein MLL peptide from human menin; Fluorescence polarization, fluorescein-MLL peptide displacement from menin; FP activity change, % at 61.4 µM; 290,000 tested, under 10 active; inconclusive = falling polarisation curve, or a change in total fluorescence; inactive = total fluorescence flat and polarisation flat or rising; no compound was filed as active; the % refers to the polarisation; negative = inhibition;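 note: % of control where 0% means no effect; inhibitors lower the polarisation; unlabelled MLL peptide was the positive control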
TRPV1 potentiator: human TRPV1 potentiation; TRPV1-expressing cells, Fluo-8 calcium influx, capsaicin EC20 potentiation; host cell line not named in the record; control for the full effect not named in the record; potentiation, % at 8.33 µM; 320,000 compounds, 0.02% hits; AID 540277; active means potentiation above 80%; inconclusive means 30% to 80%; inactive means below 30%; note: 0% is about no effect
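Fluo-8 calcium influx in TRPV1-expressing cells, kinetic read (ex 480/em 520 nm). Compound added and read 3 min for agonist activity, followed by capsaicin at EC20 final and 2 min further read for enhancement.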
Sfp inh: Sfp phosphopantetheinyl transferase inhibition. Biochemical Sfp PPTase activity, qHTS. Potency, µM, without a hit: max response, negative = inhibition, actives largely listed as inhibitors. 310,000 compounds, 3.5% hits. AID 1490; active = well fitted inhibition curve with a large enough effect; inconclusive = small, poorly fitted or top-dose-only effect, or another doubt; inactive = no such curve, though single readings can be large or run the other way;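 note: the enzyme is Sfp with the accession as filed and its product quenches rhodamine fluorescence; potency is the fitted concentration of half-maximal effect; 0% = enzyme reaction without inhibitor and -100% = no enzyme wells; top concentration of the series not given in the record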
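Fluorescence-quenching assay: 15 nM Sfp-PPTase preincubated 15 min at room temperature with compound, then 5 uM rhodamine-CoA and 12.5 uM BHQ-2-labelled YbbR peptide added. Fluorescence (ex 525/em 598 nm) read at start and after 30 min; difference gives rate.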
gsp ag: gsp mutant agonism; gsp mutant cells, cAMP HTRF, 30 min; control for the full effect not named in the record; Potency, µM (top dose mostly 76.9 µM), without a hit: at the top dose activation (cAMP increase), actives largely listed as activators; 340,000 compounds, 0.13% hits; active = well fitted activation curve with a large enough effect; inconclusive = small, poorly fitted or top-dose-only effect, or another doubt; inactive = no such curve, though single readings can be large or run the other way; cell line not stated here;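 note: phosphodiesterase inhibitor Ro 20-1724 added with compounds to block cAMP breakdown; potency is the fitted concentration of half-maximal effect; nearly all actives have a fitted effect of over 60% in size; about a fifth of the inactives were tested at one dose only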
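Cells stably selected in G418 were plated at 2000/well, grown 16-24 hr, then given compounds in DMSO with the PDE inhibitor […] (300 uM solution added) for 30 min at 37C; cAMP was read by HTRF.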
ClpP mod: qHTS Assay for Activators of ClpP. ATP-dependent Clp protease proteolytic subunit (Bacillus subtilis (strain 168)), P80244. purified B. subtilis ClpP, FRET peptide cleavage, 20 min. Potency, µM (titrated, usually from 57.5 µM), for inactives: at the highest dose activity change, negative = active. 340,000 compounds, 1.9% hits. AID 651965, 2013; active = well fitted falling curve with a large enough effect; inconclusive = small, poorly fitted or top-dose-only effect; inactive = no such curve, though single readings can be large or run the other way; note: potency is the fitted concentration of half-maximal effect; the source files actives as falling curves though it sought activators and does not explain the sign; nearly all actives have a fitted effect of over 65% in size; many hits overshoot -100%
Target sequence (P80244 whole entry, looked up): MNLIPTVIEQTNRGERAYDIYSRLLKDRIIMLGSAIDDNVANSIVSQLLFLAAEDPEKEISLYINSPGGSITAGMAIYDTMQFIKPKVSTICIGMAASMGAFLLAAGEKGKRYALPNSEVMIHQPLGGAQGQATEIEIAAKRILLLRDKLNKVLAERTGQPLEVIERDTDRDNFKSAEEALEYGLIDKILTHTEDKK
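ClpP 10 microg/mL final, pH 8 Tris/KCl buffer with BSA, glycerol, Tween-20; compound pinned in; FRET-FV substrate; RT 20 min; Ex320/Em430; ΔFRET vs ADEP 5.8 microM, DMSO, no enzyme.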
* = called active by the depositor; ? = inconclusive; nt = no result given; [ ] = another dose, or the depositor's remark.

SMILES | gsp antagonist | TRPML1 inh | Menin-MLL FL inh | TRPV1 potentiator | Sfp inh | gsp ag | ClpP mod
Cc1ccc(C(=O)Nc2ccc(OCc3ccccc3)cc2)cc1[N+](=O)[O-] | -4.2% | 9.6 | 1.8 | -1.7 | 24.3% | 9.5% | 0.8%
CCOC(=O)c1cnc2c(-c3ccccc3)cnn2c1N | 0.9% | -4.6 | -1.5 | -0.7 | 21.5% | 5.0% | 35.8%
CCOC(=O)CSc1nnc(-c2ccccc2)c(=O)[nH]1 | -5.4% | -1.2 | 0.3 | 2.9 | -13.3% | 15.1% | -3.0%
CCOc1cc(/C=N/NC(=O)c2cc3c(ccc4ccccc43)o2)ccc1O | -10.5% | 16.0 | nt | 3.5 | 17.7% | -36.4%[inhibitor] | -11.4%
CCn1c(C)cs/c1=N\S(=O)(=O)c1ccccc1 | 4.7% | -5.7 | nt | 1.6 | nt | 7.4% | -3.0%
CS(=O)(=O)N(CC(=O)NCCSc1ccccn1)c1cccc2ccccc12 | 10.1% | -10.3 | nt | 8.7 | 1.2% | -1.0%[15.4 µM] | -14.5%
O=C(Nc1ccccc1)c1cccc(C(F)(F)F)c1 | 17.6% | 21.2 | 2.2 | -4.3 | 13.0% | 2.0% | 1.1%
COc1ccc(CCn2ccc(O)c(Cc3c(F)cccc3Cl)c2=O)cc1OC | -22.3% | 21.3 | -3.2 | 4.0 | 4.4% | ? | -0.4%
CC(=O)c1c(C)[nH]c(C(=O)COc2ccc(C#N)cc2)c1C | -12.5% | -11.0 | 4.6 | 1.5 | -1.8% | 2.7% | -1.2%
O=c1[nH]cnc2nc3n(c12)CCCCC3 | 9.7% | 34.2 | 0.6 | 0.6 | 2.1% | 23.3% | -4.3%
Cc1cccc(NC(=O)CSc2nnc(-c3ccc(S(=O)(=O)N4CCCC4)cc3)o2)c1 | -2.5% | 5.6 | -0.7 | 1.4 | 8.5% | 16.3% | 0.1%
CC(NC(=O)c1ccccc1)C(=O)N/N=C/c1ccco1 (centres undefined) | 4.9% | 12.2 | -2.7 | -4.9 | 24.9% | 0.8% | nt
COc1cccc2c1OCC([C@@H]1C[C@H]3CN(Cc4cccc(Cl)c4)C(=O)[C@]34CCCN14)=C2 | -11.9% | 15.9 | 3.9 | 19.1 | 3.4% | -5.3% | nt
CC(C)n1nc(C(=O)OCC(=O)NCCc2ccc(S(N)(=O)=O)cc2)c2ccccc2c1=O | -0.8% | 24.2 | nt | nt | nt | 15.1% | 1.2%
CCN(CC)c1ccc(CNCc2cccs2)cc1 | -19.4% | 9.5 | 5.6 | -3.8 | 4.3% | -2.4%[15.4 µM] | 0.8%
CC(c1ccon1)N(C)C(=O)CCc1nnc(Cc2ccc(-c3ccccc3)cc2)o1 (centres undefined) | ? | 0.2 | -0.3 | -13.2 | -4.1% | 34.3% | 0.1%
OCCNc1nc2ccccc2n1-c1ccccc1 | 0.5% | 4.6 | 0.3 | 4.0 | 10.4% | -8.0% | 0.3%
Cc1c(C(=O)O)sc(=S)n1-c1ccc(Cl)cc1 | -14.5% | 9.2 | -2.1 | -3.1 | 13.6% | 10.2% | -2.6%
Cc1ccc(S(=O)(=O)N(C)C)cc1NC(=O)CN1c2cccc3cccc(c23)S1(=O)=O | -11.0% | -9.3 | nt | 4.7 | nt | 5.0% | -12.1%
CCNc1nc(Oc2ccc(C(=O)OC)cc2)nc(N(C)C)n1 | 6.9% | 3.7 | 0.1 | 2.2 | 6.3% | -4.6% | ?
Cc1onc(-c2ccccc2)c1C(=O)N1CCN(c2ccccc2)CC1 | 5.5% | 1.2 | nt | ? | 8.9% | -9.5%[15.4 µM] | 2.9%
Cc1ccc(C(=O)CC2(O)C(=O)N(C)c3ccccc32)s1 (centres undefined) | -24.9% | -9.1 | 2.4 | 0.9 | ? | 1.0% | -0.8%
CCOC(=O)CC1C(=O)NCCN1C(=O)c1ccc(Cl)cc1 (centres undefined) | 11.5% | -2.4 | 5.8 | 5.7 | 21.0% | 0.0%[15.4 µM] | nt
O=C(NC1CCCN(Cc2ccc(Cl)cc2)C1)c1cccc(N2CCCC2=O)c1 (centres undefined) | 8.1% | -8.7 | nt | 9.8 | 16.5% | -13.3% | -0.5%
CCN(CC)C(=O)Cn1cc(C(=O)C(=O)N2CCN(c3ccccc3)CC2)c2ccccc21 | ? | 0.5 | nt | -3.7 | 13.9% | 20.4% | 1.4%
CSC1=NCCN1C(=O)Cc1ccc(-c2ccccc2)cc1 | -7.5% | -3.5 | 3.4 | -4.8 | 3.8% | -16.8%[15.4 µM] | nt
CC(C(=O)NCC1CCCO1)N(C(=O)c1snc(C(N)=O)c1N)c1ccccc1 (centres undefined) | -5.2% | 12.7 | 7.0 | 27.3 | 9.1% | -36.6%[inhibitor] | ?
CC(C(=O)Nc1ccc2c(c1)OCCO2)N(C)CC(=O)Nc1ccccc1Br (centres undefined) | -15.2% | -1.0 | nt | 0.7 | nt | -10.9% | -0.7%
COc1ccc(CCN(C)C(=O)C(CCSC)NC(=O)c2ccco2)cc1OC (centres undefined) | 28.0% | -4.2 | nt | 3.3 | nt | -5.6% | 1.2%
Cc1cc(NC2CCCCC2)nc(-c2ccccc2O)n1 | -7.2% | 7.5 | 6.9 | 4.6 | -23.8% | 14.3% | ?
CN(CCC1CCCCO1)C(=O)CCc1nnc(CCCCc2ccccc2)o1 (centres undefined) | -2.4% | -16.0 | -0.6 | -1.7 | -0.9% | -12.9% | 0.5%
COc1ccc(N(CC(=O)NCCSCc2cccc(Cl)c2)S(C)(=O)=O)cc1 | -7.0% | 31.3 | -0.4 | 6.1 | 1.8% | -32.3%[inhibitor] | nt
O=c1c2c(O)cc(O)cc2oc2ccc(O)c(O[C@@H]3O[C@H](CO)[C@@H](O)[C@H](O)[C@H]3O[C@H]3O[C@H](CO)[C@@H](O)[C@H](O)[C@H]3O)c12 | 4.0% | nt | nt | -14.3 | nt | nt | -2.8%
Cc1ccc(N2C(=O)c3cccc4c(N)ccc(c34)C2=O)c2cccnc12 | 13.3% | -0.2 | ? | -7.8 | 9.8% | 27.3% | 0.0%
O=C(Nc1ccc2nccnc2c1)c1ccco1 | -2.2% | ? | -6.5 | 0.3 | 15.4% | 32.6% | 3.7%
CCc1ccc(CN2CCC(n3nccc3NC(=O)c3ccccc3)CC2)o1 | -10.2% | 3.5 | nt | -2.9 | 1.6% | -4.2% | 0.6%
CCc1cccc(C)c1NC(=O)COC(=O)c1cc([N+](=O)[O-])ccc1N1CCOCC1 | 6.7% | -8.7 | nt | -2.9 | nt | 7.9% | 1.2%
Cc1cccc(CC(=O)Nc2ccc(C(=O)N3CCCCC3)cc2)c1 | -0.9% | -3.6 | -2.6 | 13.6 | 8.7% | 23.8% | 3.16µM*
O=C(CCn1cnc2ccccc2c1=O)Nc1ccc(S(=O)(=O)N2CCCC2)cc1 | 2.2% | 8.5 | 4.6 | -11.4 | 8.0% | 8.7% | -1.1%
COc1ccc(S(=O)(=O)NCCc2cn3nc(C)c(C)nc3n2)cc1F | 2.4% | 16.6 | -4.7 | 3.7 | -5.7% | 18.0% | 3.7%
CCn1c(O)c(/C=C2\C=Nc3ccccc32)sc1=Nc1ccc(C)cc1 | 4.1% | -2.4 | 10.7 | 18.7 | 15.4% | -15.2% | 0.3%
CCOc1ccc2nc(NC(=O)CN3CCC(n4nnc5cc(F)ccc54)CC3)sc2c1 | ? | 1.2 | 4.3 | -14.7 | 8.4% | 2.0% | -2.7%
COc1ccccc1-c1sc2cc3c(cc2c1C#Cc1ccccn1)OCO3 | 0.4% | 1.5 | nt | -2.9 | nt | 16.9% | 4.5%
CC(C)C(=O)Nc1cccc(C(=O)NCc2ccc3c(c2)OCO3)c1 | -6.5% | -2.1 | -0.5 | ? | 0.0% | 1.9% | 0.9%
C=CC[C@@H](CC(=O)N(CCO)Cc1ccccc1)C(=O)N[C@H](COC(=O)[C@@H](CC=C)Cc1ccc(F)cc1)Cc1c[nH]c2ccccc12 | -14.4% | -1.4 | nt | nt | nt | nt | -5.6%
CCNC(=O)CN1C(=O)NC2(CCCc3cc(OC)ccc32)C1=O (centres undefined) | 3.5% | 11.2 | -4.6 | -6.0 | -12.7% | -5.4% | -0.9%
O=C(CCCOc1ccccc1)Nc1nccs1 | 3.4% | 1.9 | 1.8 | -2.0 | 3.7% | 3.5% | 0.3%
O=C(c1ccccc1)N1CCN(c2ccc([N+](=O)[O-])c(N3CCOCC3)c2)CC1 | ? | -6.7 | 1.5 | 0.7 | 7.5% | -24.4% | nt
Cc1ccc(N/C=C(/C#N)c2ccsc2)cc1C | 23.7% | 11.2 | 0.7 | 4.7 | 6.6% | -10.3% | 0.2%
CN(CCCN1CCOCC1)C(=O)c1ccc2nc(Cc3cccc(Cl)c3)oc2c1 | -10.2% | -3.1 | nt | -5.1 | -4.7% | -1.1%[15.4 µM] | -2.6%
COc1ccc(C(c2nnnn2Cc2cccs2)N2CCN(c3ccccc3F)CC2)cc1OC (centres undefined) | 0.1% | 4.3 | -0.4 | 2.0 | ? | 18.5% | -2.2%
COc1cc(C#Cc2c(C=O)n(C)c3ccccc23)cc(OC)c1 | -15.5% | 4.6 | nt | -3.0 | nt | -3.3% | ?
CCNc1nc(NC(C)C)nc(N2CC(=O)N(CC(=O)OCC)C2=N)n1 | -3.1% | -0.5 | -0.7 | 3.8 | 6.4% | 16.1%[15.4 µM] | -1.8%
CCc1c(O)nc(SCC(=O)Nc2ccc(OC)cc2)n(C2CCCCC2)c1=O | ? | 1.6 | 0.1 | 25.4 | 4.0% | 0.1% | 0.4%

Assay outcomes: PubChem, National Center for Advancing Translational Sciences (NCATS)
